Mtb MenB inh – inhibitors of Mycobacterium tuberculosis MenB enzyme | 100,000 tested, 0.43% active | MenB enzyme assay, absorbance read-out; some hits fall short of the stated cut | P9WNP5 | inhibition, %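 (about 12 µg/mL by stock and volumes)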;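 active = mean of two replicates above 30%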;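 note: 0% = no compound and 100% = wells with inactive enzyme; the first replicate is given; strong numbers were not always called active; inactives centre near -10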
Target sequence (P9WNP5 whole entry, looked up): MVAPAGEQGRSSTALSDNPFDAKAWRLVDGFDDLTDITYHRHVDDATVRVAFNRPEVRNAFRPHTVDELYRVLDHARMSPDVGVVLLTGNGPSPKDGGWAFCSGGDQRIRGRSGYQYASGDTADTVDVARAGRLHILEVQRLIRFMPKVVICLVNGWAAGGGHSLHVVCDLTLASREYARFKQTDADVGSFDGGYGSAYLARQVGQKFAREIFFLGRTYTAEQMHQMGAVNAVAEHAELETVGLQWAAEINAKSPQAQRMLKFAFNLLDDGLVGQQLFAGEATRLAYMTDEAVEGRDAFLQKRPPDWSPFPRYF
PV pol inh – inhibitors of poliovirus RNA polymerase binding and polymerization; poliovirus polymerase elongation, fluorescence polarization; hits give low values; % elongation, % (compound at 16.7 µg/mL); 150,000 tested, 0.66% active; AID 588519; in the data active = % elongation below about 90%; note: some results filed as inactive read as strong as hits
Target sequence (P03300 1749-2209 limits assumed): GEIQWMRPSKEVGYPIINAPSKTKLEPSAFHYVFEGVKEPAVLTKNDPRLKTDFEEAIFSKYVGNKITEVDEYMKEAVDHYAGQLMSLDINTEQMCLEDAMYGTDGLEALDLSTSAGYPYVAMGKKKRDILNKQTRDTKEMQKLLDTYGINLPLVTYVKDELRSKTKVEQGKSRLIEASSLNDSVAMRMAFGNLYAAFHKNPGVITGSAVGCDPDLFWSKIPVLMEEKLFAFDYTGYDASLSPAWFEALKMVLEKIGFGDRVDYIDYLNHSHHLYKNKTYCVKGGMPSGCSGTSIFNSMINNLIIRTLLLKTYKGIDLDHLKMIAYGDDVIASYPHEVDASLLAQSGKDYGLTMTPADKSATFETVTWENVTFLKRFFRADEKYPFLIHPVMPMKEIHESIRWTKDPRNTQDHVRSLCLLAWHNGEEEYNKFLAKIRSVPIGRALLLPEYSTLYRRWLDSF
MbtI inh – inhibitors of Mycobacterium tuberculosis siderophore enzyme MbtI. P9WFX0. purified MbtI enzyme, fluorescence intensity read-out. inhibition, %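 (about 17 µg/mL by stock and volumes)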. 100,000 tested, 0.89% active. AID 493033;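 active = above 50% in both replicates, above 80% if mildly self-fluorescent; inactive = the rest, strongly fluorescent compounds included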;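 note: 0% = mean of negative and 100% = mean of positive controls; one replicate is shown; some compounds called inactive have numbers as strong as hits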
PV pol inh intensity – recorded beside PV pol inh, whose call it bears; % elongation; measured here: total intensity read-out; formula for this scale not given here;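 total fluorescence in place of polarization; lower means less elongation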
* = called active by the depositor; i = inactive; / = not tested or not shown; & = joins results of further samples.

nr	canonical_smiles	Mtb MenB inh	PV pol inh	PV pol inh intensity	MbtI inh
1	CC1CCC(NC(=O)C2CCN(c3nnc(-n4cccc4)s3)CC2)CC1 (configuration not stated)	7.5	104.0	99.0	1.1
2	Cc1ccc(SCC(=O)Nc2cccnc2)cc1	-1.3	100.0	96.0	/
3	CC(NCCC(=O)O)c1ccccc1 (configuration not stated)	34.5*	99.0	98.0	-3.5
4	O=C1NC(=O)C2(CCC(C(=O)O)C2)N1 (configuration not stated)	10.4	104.0	104.0	-3.0
5	COC(=O)CCN1CCC(C(N)=O)CC1	-0.5	104.0	109.0	-13.0
6	CC1(O)CC(C(F)(F)OC(F)(F)F)=NN1S(=O)(=O)c1ccccc1 (configuration not stated)	-10.3	104.0	100.0	-69.6
7	O=C(NC(=S)N1CCCCC1CO)C12CC3CC(CC(C3)C1)C2 (configuration not stated)	-10.6	107.0	103.0	1.9
8	[O-]/[N+](Cc1ccccc1)=N\OCc1ccccc1	-6.7	102.0	104.0	-18.6
9	Cc1ccc(-c2cc(C(=O)N3CCCC3)no2)cc1	10.8	99.0	101.0	6.3
10	c1ccc(Nc2nnc(-c3cccc4ccccc34)o2)cc1	7.0	102.0	103.0	-25.9
11	Nn1c(C2CC2)nc2cc(Cl)ccc2c1=O	-4.2	102.0	103.0	8.4
12	O=S1(=O)CC(N2CCCCC2)C(N2CCCCC2)C1 (configuration not stated)	-4.2	102.0	106.0	/
13	COc1ccc(-c2csc3nc(C)n(-n4cccc4)c(=O)c23)cc1	0.5	100.0	103.0	71.0
14	CC1=CC(=O)N(c2ccc(OC(F)(F)F)cc2)C1=O	-21.7	102.0	95.0	18.2
15	NC(=O)c1c(NC(=O)c2ccccc2)sc2c1CCC2	1.6	107.0	104.0	/
16	COC(=O)CC(=O)CSc1nc2c(cc1C#N)CCC2	-160.3	102.0	104.0	-74.2
17	CN(Cc1nc(-c2ccccc2)no1)C(=O)CC(C)(C)C	-12.2	102.0	99.0	6.1
18	Cc1ccc(C(=O)N2CCc3cc(C(=O)C(C)N4CCC(C)CC4)ccc32)cc1 (configuration not stated)	-30.2	98.0	98.0	-4.5
19	Nc1cc(=O)[nH]c(SCc2ccccc2Cl)n1	-22.9	101.0	102.0	-1.9
20	C=CCn1c(Cc2csc(N)n2)nnc1SCc1ccc(C(=O)OC)cc1	-32.0	101.0	103.0	-2.6
21	O=C(CSc1nnnn1C1CCCC1)NN1C(=O)NC(c2ccccc2)(c2ccccc2)C1=O	-20.8	100.0	99.0	-3.2
22	Cc1nnc(SC(c2ccccc2)c2ccccc2)s1	0.2	101.0	106.0	/
23	CCc1ccc(C2C3=C(CCCC3=O)Nc3c2c(=O)n(C)c(=O)n3C)cc1 (configuration not stated)	-1.1	100.0	98.0	-13.5
24	CCCC1(C)NC(=O)c2ccccc2O1 (configuration not stated)	8.3	101.0	99.0	4.2
25	Cc1nc2ccc(NC(=O)N3CC4(C)CC3CC(C)(C)C4)cc2nc1C (configuration not stated)	-14.2	109.0	108.0	/
26	O=C(O)c1cc(=O)c2c(OCC(O)COc3cccc4oc(C(=O)O)cc(=O)c34)cccc2o1	-6.1&16.1	102.0&100.0	99.0&104.0	-1.1&-2.4
27	CC(=O)OCC(=O)[C@H]1CCC2C3CCC4=CC(=O)CC[C@]4(C)C3CC[C@@]21C (some centres not stated)	1.8	100.0	101.0	-9.2
28	CCOC(=O)CCc1c(C)c(C#N)c2nc3ccccc3n2c1Cl	-0.3	102.0	105.0	-7.7
29	Cc1nc2cc(-n3c(O)c[nH]c3=O)ccc2s1	20.0	103.0	101.0	13.1
30	CCOC(=O)c1c(CSc2nnc(Cc3csc(C)n3)o2)nc2ccccc2c1C	-40.4	/	/	-8.2
31	O=C(Oc1ccc2oc(=O)sc2c1)c1ccc(Br)cc1	-12.5	102.0	104.0	/
32	CC(C(=O)NC1CCCC1)n1cc(Br)ccc1=O (configuration not stated)	-5.8	102.0	107.0	9.4
33	Cc1oc(-c2ccc(Cl)cc2)nc1CS(=O)CC(=O)NC(C)C (configuration not stated)	3.0	98.0	101.0	42.5
34	CNC(=O)Nc1ccc(C(C)(C)C)cc1Br	5.1	110.0	110.0	-9.7
35	NC(=O)c1cc(S(=O)(=O)N2CCc3ccccc32)cs1	-2.8	102.0	105.0	-18.8
36	O=C(COc1nc2ccccc2nc1N1CCOCC1)NCCc1ccc(F)cc1	-16.1	107.0	105.0	1.8
37	Cc1ccc(C2=NN(C(=O)CNc3ccc(S(=O)(=O)N4CCCC4)cc3)C(c3ccco3)C2)cc1 (configuration not stated)	-17.1	106.0	109.0	2.2
38	Cc1nn(CCCC(=O)NC2CCCCC2)c(=O)c2nccn12	0.6	101.0	104.0	-6.7
39	CC1CN(C(=O)C2CCCO2)CC(C)O1 (configuration not stated)	-17.0	100.0	100.0	-7.1
40	N=C1SCC(=O)N1C(=O)c1ccccc1	-5.7	96.0	98.0	/
41	CCN(CCCNc1nc(-c2cc(OC)ccc2OC)no1)c1ccccc1	-20.3	104.0	105.0	-2.5
42	NS(=O)(=O)c1ccc(NC(=O)CSC2CCCCC2)cc1	10.3	101.0	105.0	0.3
43	C=CCN1C(=O)NC2(CCCCC2)C1=O	6.0	98.0	102.0	-11.2
44	O=C(CS(=O)(=O)c1ccc(C(F)(F)F)cc1Cl)Nc1ccc(F)cc1	-10.1	104.0	104.0	/
45	O=C(Nc1ccc(Cl)cc1)C(O)c1ccccc1 (configuration not stated)	-18.8	98.0	102.0	-15.1
46	Cc1oc(C(=O)O)cc1COc1ccccc1Cl	-24.7	99.0	100.0	-9.3
47	Oc1c(C=C2N=c3ccccc3=N2)sc(=S)n1-c1ccc(F)cc1	/	101.0	107.0	2.0
48	O=C(C1CC(=O)N(C2CCCC2)C1)N1CCC(Cc2ccccc2)CC1 (configuration not stated)	-7.9	99.0	102.0	-9.7
49	O=c1c(-c2ccc(O)cc2)coc2cc(O)ccc12	-4.9	101.0	103.0	-45.2
50	O=C(O)c1ccccc1C(=O)N1CCN(c2ncccn2)CC1	4.6	106.0	112.0	-7.6

Next results follow.
nr	canonical_smiles	Mtb MenB inh	PV pol inh	PV pol inh intensity	MbtI inh
51	COc1ccc(Cn2nnc3c(=O)[nH]c(C(=O)NCCc4ccc(F)cc4)nc32)cc1OC	3.9	100.0	102.0	2.3
52	Cc1n[nH]c(C)c1CCN	-12.5	103.0	103.0	-16.1
53	CCOC(=O)/C(C#N)=C/c1cn(CCOc2ccccc2)c2ccccc12	-22.5	103.0	103.0	8.8
54	N#Cc1oc2ccccc2c1N=Cc1c(O)n(-c2cccc(C(F)(F)F)c2)c(=O)c2ccccc12	-7.2	94.0	133.0	-4.9
55	O=S(=O)(N/N=C/c1ccc(N2CCOCC2)cc1)c1ccccc1	5.5	109.0	101.0	36.0
56	O=C1/C(=N\O)c2cccc3cccc1c23	5.6	100.0	100.0	25.6
57	Cc1ccc(NC(=O)C(C)SC2=NCCS2)cc1 (configuration not stated)	/	97.0	98.0	-8.9
58	COC(=O)COc1cccc2c(=O)n(CC(=O)N3CCCc4ccccc43)ccc12	-26.3	108.0	99.0	0.9
59	CNC(=O)CCC(=O)N1CCOc2ccc(C)cc21	-0.1	102.0	107.0	-7.5
60	S=C(NN=C1CCCCC1)NC1CCCCC1	-45.6	99.0	94.0	-12.2
61	CC(=O)OCCn1c(=O)[nH]c(=O)c2nsnc21	-0.2	103.0	100.0	i
62	CN(c1nnc(NC(=O)Nc2ccccc2)s1)C1CCCCC1	-0.4	102.0	103.0	-13.8
63	Cc1cccc(C)c1NC(=O)CCCSc1nnnn1-c1ccccc1	4.8	99.0	98.0	/
64	CC(Cc1nnc(SCC(=O)Nc2ccc(Cl)cn2)n1N)c1ccccc1 (configuration not stated)	-10.1	/	/	-7.8
65	CCOC(=O)c1c(C)[nH]c2ccc(O)cc12	/	102.0	101.0	-55.1
66	CCCN(CC(=O)Nc1ccc(Cl)cc1Cl)Cn1nnc2ccccc21	-20.0	101.0	100.0	-22.1
67	CCOC(=O)/C=c1\s/c(=C\c2cccs2)c(=O)n1CC(=O)N(C)C	-11.9	106.0	114.0	-8.2
68	Cc1cc(C(=O)CN2CCN(C(=O)c3cccs3)CC2)c(C)n1-c1ccc(S(N)(=O)=O)cc1	-20.7	106.0	114.0	-6.0
69	O=C(COc1ccc(-n2cnnn2)cc1)NCCC1=CCCCC1	-112.1	99.0	97.0	-3.8
70	Cc1cc(C)n(-c2nc3ccccc3nc2N2CCN(S(=O)(=O)c3cccs3)CC2)n1	-20.1	100.0	97.0	2.2
71	COc1ccc(/C=N/NC(=O)c2ccc(Cl)c(S(N)(=O)=O)c2)cc1OCC(N)=O	-23.4	98.0	101.0	5.2
72	Fc1ccccc1CCNCc1ccco1	-25.4	101.0	99.0	6.3
73	CNC(=O)NC(=O)COc1ccc2oc3c(c2c1)CCCC3	-8.1	99.0	97.0	-2.8
74	CCOC(=O)c1cnc(SCSc2nc3ccccc3s2)nc1N	-10.5	102.0	105.0	-4.3
75	COc1ccc(-c2nc(/C=C/C(=O)O)cs2)cc1	5.5	92.0	97.0	108.7
76	COc1ccc(OC)c(C2c3cccn3CCN2S(=O)(=O)c2ccccc2C(F)(F)F)c1 (configuration not stated)	-1.3	102.0	99.0	1.6
77	CC1CC[C@@H]2N(C1)CC1C(CC[C@H]3C4CC(=O)[C@H]5CC(=O)CCC5(C)[C@H]4C[C@@H]13)[C@]2(C)O (some centres not stated)	11.6	102.0	101.0	2.9
78	Cc1cccc(-n2ncc3c(NCCc4ccccc4)ncnc32)c1	-13.9	106.0	98.0	43.5
79	O=C(O)CC1SC(=Nc2ccc(O)cc2)NC1=O (configuration not stated)	4.4	102.0	101.0	1.0
80	COc1cc(Cl)c(C)cc1NC(=O)Cn1c(=O)c2c(ncn2CC(C)C)n(CC(C)C)c1=O	-2.4	104.0	115.0	-12.8
81	CCN1C(=O)c2cccc3c(S(=O)(=O)N(C(=O)c4ccncc4)c4ccc(OC)cc4)ccc1c23	-57.1	103.0	105.0	-2.1
82	CCSc1nc2c(c(=O)n1CC)SCC2	-0.6	102.0	103.0	3.0
83	Cc1cc(C)c2[nH]c(=O)c(CNCC3CCCO3)cc2c1 (configuration not stated)	-1.1	100.0	102.0	79.8
84	O=c1c2c(-c3cccs3)csc2[nH]c(=S)n1CCc1ccccc1	-66.1	111.0	109.0	-4.4
85	Cc1nc(N)[nH]c(=O)c1CCC(C)C	-5.6	105.0	111.0	-7.3
86	C=CCSc1nnc(NC(=O)/C=C/c2c(Cl)nc3sccn23)s1	-11.5	99.0	106.0	15.9
87	COc1cc2c(cc1NS(=O)(=O)N1CCCCC1)oc1ccccc12	-28.1	101.0	102.0	i
88	O=C1NC2(CCCCC2)C(=O)N1CCN1C(=O)c2ccccc2C1=O	-0.2	102.0	107.0	-0.7
89	O=C(C1COc2ccccc2O1)N1CCCc2ccccc21 (configuration not stated)	-24.2	101.0	98.0	-6.8
90	CC1(C)Cc2ccccc2-c2nc3[nH][nH]c(=S)n3c(=O)c21	-7.3	99.0	99.0	78.3
91	CCN(CC(=O)Nc1cccc(OC)c1)CC(=O)Nc1ccccc1C	0.8	103.0	104.0	-6.0
92	O=C1c2ccccc2C(=O)N1/N=C/c1ccc(O)c(O)c1	-11.4	104.0	103.0	23.2
93	COC(=O)c1cc(-c2ccccn2)no1	-17.4	74.0	186.0	/
94	CC1=C(C(=O)OC2CCCC2)C(c2ccc(C)o2)C2=C(CCCC2=O)N1 (configuration not stated)	-22.3	105.0	103.0	-8.2
95	O=C(O)c1cccnc1SC1CC(=O)N(c2ccc(Cl)cc2)C1=O (configuration not stated)	-17.4	105.0	102.0	65.5*
96	CCOC(=O)N1CCN(Cc2nc(N)nc(Nc3ccc(C)cc3)n2)CC1	-13.6	101.0	102.0	-4.7
97	O=C(Cn1nnc(-c2ccccc2)n1)C12CC3CC(CC(C3)C1)C2	-6.5	101.0	100.0	0.2
98	CCCOc1ccc(N2C(=O)CC(SCC(=O)O)C2=O)cc1 (configuration not stated)	-5.7	104.0	101.0	3.5
99	O=C(CN1CCN(S(=O)(=O)c2ccccc2)CC1)Nc1cccc(C(F)(F)F)c1	-30.8	103.0	100.0	-4.9
100	CC1CCCCN1CCC(=O)O (configuration not stated)	-3.2	100.0	101.0	7.0

Assay outcomes from PubChem.
